Env fusion inh – inhibitors of HIV Env-mediated cell fusion; HeLa-JRFL Env/CEM21 cell fusion, luciferase; inhibition, % at 12.3 µM; AID 651610; actives 1.1% (n = 360,000);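 active = mean replicate inhibition score of at least 50 and every replicate individually at or above 50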;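 also: 0% = plate neutral controls and 100% = maraviroc near 300 nM; one replicate is shown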
Starred values were filed as active, the others as inactive; [ ] = another dose, or the depositor's remark.

Env fusion inh	SMILES
16[16.7 µM]	C[C@H](CO)N1C[C@H](C)[C@H](CN(C)C(=O)NC2CCCC2)Oc2ncc(-c3ccncc3)cc2C1=O
-36[16.7 µM]	CN1CCN(C(=O)C[C@H]2CC[C@@H]3[C@@H](COc4ccc(NC(=O)C5CCOCC5)cc4C(=O)N3C)O2)CC1
10	O=C(NCc1ccco1)C(=O)NN=Cc1ccccc1O
12[16.7 µM]	CN1[C@@H]2Cn3c(ccc(-c4ccncc4)c3=O)[C@H]1[C@@H](C(=O)N1CCC(Cc3ccccc3)CC1)[C@@H]2CO
-1[16.7 µM]	CC(C)NC(=O)Nc1ccc2c(c1)C(=O)N([C@H](C)CO)C[C@H](C)[C@H](CN(C)S(C)(=O)=O)O2
14[16.7 µM]	O=C(Nc1ccc2c(c1)[C@H]1C[C@@H](CC(=O)N3CCc4ccccc4C3)O[C@@H](CO)[C@H]1O2)C1CCOCC1
16	C=CCN1CC(COCCCC)Oc2ccc(Cl)cc2S1(=O)=O (stereo not drawn)
-1	CC(C)[C@@H](C)/C=C/[C@@H](C)[C@H]1CC[C@@H]2[C@]1(C)CCC1[C@]23C=C[C@]2(C[C@@H](O)CC[C@]12C)N(c1ncc(C(F)(F)F)cc1Cl)O3 (stereo partly drawn)
-7[16.7 µM]	C[C@@H]1CN([C@H](C)CO)C(=O)Cc2cc(NC(=O)C3CC3)ccc2O[C@H]1CN(C)C
5	FC(F)(F)c1ccccc1CN1CCCc2nc(-c3ccc(Br)cc3)ccc21
1	C[C@H]1COc2cccc(N3CCCC3)c2S(=O)(=O)N1
-21[16.7 µM]	C[C@@H]1CN([C@@H](C)CO)C(=O)c2cccc(N(C)C)c2O[C@H]1CN(C)C(=O)NC1CCCCC1
-4[16.7 µM]	C[C@@H]1CN([C@@H](C)CO)C(=O)c2cc(NC(=O)Cc3ccccc3)ccc2O[C@@H](C)CCCCO[C@@H]1CN(C)Cc1ccncc1
-4[16.7 µM]	COc1ccc(CN(C)C[C@@H]2Oc3ccc(NS(=O)(=O)c4c(C)noc4C)cc3CC(=O)N([C@H](C)CO)C[C@@H]2C)cc1
-34[16.7 µM]	O=C(NC[C@H]1CC[C@@H]2[C@@H](CN2C(=O)Cc2ccncc2)O1)C1CCOCC1
-5[16.7 µM]	Cc1ccc(S(=O)(=O)Nc2ccc3c(c2)C(=O)N([C@H](C)CO)C[C@@H](C)[C@@H](CN(C)Cc2ccccc2)O3)cc1
-83	COC(=O)C1=C(C)N(Cc2ccccc2C(F)(F)F)C(=NCc2ccc(OC)cc2)NC1c1cccc(Cl)c1 (stereo not drawn)
-5[16.7 µM]	CN(C)Cc1cn(CC[C@H]2CC[C@@H](NC(=O)Cc3cccnc3)[C@H](CO)O2)nn1
4[16.7 µM]	CCCNC(=O)Nc1ccc2c(c1)OC[C@H](C)N(Cc1ccncc1)C[C@H](C)[C@H](OC)CN(C)C2=O
-7[16.7 µM]	CO[C@H]1CN(C)C(=O)c2ccc(NC(=O)C3CCCCC3)cc2OC[C@H](C)N(Cc2cccnc2)C[C@@H]1C
35	CCCCc1c(-c2ccccc2OC)ncn1Cc1ccc(Br)cc1
10[16.7 µM]	COc1ccc(-c2ccc3n(c2=O)C[C@H]2[C@H](CO)[C@@H](C(=O)N4CCOCC4)N[C@@H]32)cc1
-7[16.7 µM]	COc1cccc(S(=O)(=O)Nc2ccc3c(c2)[C@H]2C[C@H](CC(=O)N4CCCCC4)O[C@@H](CO)[C@H]2O3)c1
-6[16.7 µM]	COc1ccc(-c2cccc(-c3nc(C(=O)NCC(F)(F)F)cc4c3[C@@H](CCO)N([S@](=O)C(C)(C)C)C4)c2)cc1
-11[16.7 µM]	CO[C@H]1CN(C)C(=O)c2ccc(NC(=O)Nc3cc(F)ccc3F)cc2OC[C@@H](C)N(C(=O)c2cnccn2)C[C@@H]1C
-5[16.7 µM]	CN1CCN(C(=O)C[C@H]2C[C@@H]3c4cc(NC(=O)C5CCC5)ccc4O[C@@H]3[C@H](CO)O2)CC1
-3	CN(c1ccc(NC(=O)Cc2c[nH]c3ccccc23)cc1)c1ccccn1
0[16.7 µM]	C[C@@H]1CN([C@H](C)CO)C(=O)c2cc(NC(=O)Cc3ccccc3)ccc2O[C@@H]1CN(C)Cc1ccc2c(c1)OCO2
-23[16.7 µM]	CO[C@@H]1CN(C)C(=O)c2cc(NC(=O)c3ccccc3F)ccc2OC[C@H](C)NC[C@H]1C
4[16.7 µM]	Cc1noc(C)c1S(=O)(=O)N(C)C[C@@H]1Oc2ccc(NS(=O)(=O)c3ccc(F)cc3)cc2CC(=O)N([C@H](C)CO)C[C@@H]1C
-33[16.7 µM]	CO[C@H]1CC[C@@H]2CCOc3ccc(C#N)cc3C(=O)N(C)C[C@H](c3ccccc3)CC(=O)N(C)C[C@H]1O2
-1	COCc1[nH]nc2c1C(c1ccc3c(c1)OCO3)N(Cc1ccccc1)C2=O (stereo not drawn)
-18[16.7 µM]	COCC(=O)N1C[C@@H](C)[C@@H](OC)CN(C)C(=O)c2ccc(NC(=O)c3cnccn3)cc2OC[C@@H]1C
5[16.7 µM]	O=C(NCc1ccccc1)[C@@H]1[C@@H](CO)[C@@H]2Cn3c(ccc(-c4cccnc4)c3=O)[C@@H]2N1Cc1cocn1
-11[16.7 µM]	CCCNC(=O)N1C[C@H](O)COC[C@H]2O[C@H](CC(=O)O)CC[C@@H]21
-4[16.7 µM]	CC(C)CC#Cc1cnc2c(c1)C(=O)N([C@H](C)CO)C[C@@H](C)[C@@H](CN(C)C(=O)c1cccc(F)c1)O2
8[16.7 µM]	CC(C)NC(=O)Nc1cccc2c1O[C@@H](CN(C)Cc1ccc(Cl)c(Cl)c1)[C@@H](C)CN([C@@H](C)CO)C2=O
89*	C[C@@H]1CNC(=O)c2c(C(=O)N3CCN(c4ccccc4)CC3)ncn21
-9[16.7 µM]	C[C@H](CO)N1C[C@H](C)[C@@H](CN(C)C(=O)c2ccc(F)cc2)Oc2cc(C3=CCCC3)ccc2S1(=O)=O
7	CCCCCCCCN1C(=O)[C@@H](CC(=O)NCCC(C)C)C[C@@]2(C(=O)OC)C1=C[C@H](C1CCCC1)O[C@@H]2C
14[16.7 µM]	CCCN(C)C[C@H]1OCCCC[C@@H](C)Oc2ccc(NS(=O)(=O)c3ccc(Cl)cc3)cc2C(=O)N([C@@H](C)CO)C[C@H]1C
7[16.7 µM]	CO[C@@H]1CN(C)C(=O)c2ccc(NC(=O)Nc3ccccc3F)cc2OC[C@@H](C)N(CCC(F)(F)F)C[C@H]1C
-17[16.7 µM]	COc1ccc2c3c(n(C)c2c1)[C@H](CO)N(C(=O)Nc1ccc(F)cc1)CC31CN(S(=O)(=O)c2cccc(C)c2)C1
-7	Nc1[nH]c(C(=O)c2ccc(Br)cc2)c(-c2ccc(Cl)c(Cl)c2)c1C(=O)NCCc1c[nH]c2ccccc12
-16[16.7 µM]	CC=Cc1ccc2n(c1=O)C[C@H]1[C@H](CO)[C@@H](C(=O)NCCc3cn(C)cn3)[C@@H]2N1C(=O)CC (mixture of isomers)
22	C[C@H](c1ccccc1)N1C[C@@H](COCc2ccccc2)Oc2cccc(Oc3ccc(C(C)(C)C)cc3)c2S1(=O)=O
-7[16.7 µM]	CN(C)CC(=O)Nc1ccc2c(c1)[C@H]1C[C@@H](CC(=O)NC3CCCCC3)O[C@@H](CO)[C@H]1O2
-36	C[C@@H](NS(=O)(=O)c1c(F)cccc1F)c1ccccc1
-1[16.7 µM]	CCCC(=O)Nc1ccc2c(c1)OC[C@@H](C)N(Cc1ccccn1)C[C@H](C)[C@H](OC)CN(C)C2=O
-4	O=C(N[C@H](C(=O)N1CCC[C@H]1C(=O)NCCc1ccccc1Cl)c1ccccc1)C1CC1
12[16.7 µM]	Cc1noc(C)c1NC(=O)N(C)C[C@@H]1Oc2cc(C#CCN(C)C)ccc2S(=O)(=O)N([C@H](C)CO)C[C@H]1C
-39[16.7 µM]	C[C@@H]1CN([C@@H](C)CO)C(=O)c2c(c3ccccc3n2C)-c2ccccc2CO[C@@H]1CN(C)S(=O)(=O)c1cccs1
-3	O=C(C(=O)N1CCC(CNC(=O)c2cccnc2Cl)CC1)c1cccs1
19[16.7 µM]	COCC(=O)Nc1ccc2c(c1)[C@@H]1C[C@H](CC(=O)NCc3ccc4c(c3)OCO4)O[C@@H](CO)[C@@H]1O2
-9[16.7 µM]	COC(=O)C[C@H]1CC[C@H]2[C@@H](COc3ccc(NC(=O)c4cncs4)cc3C(=O)N2C)O1
11[16.7 µM]	C[C@@H](NC(=O)[C@@H]1N[C@@H]2c3ccc(C4=CCCC4)c(=O)n3C[C@@H]2[C@H]1CO)c1ccccc1
17[16.7 µM]	C[C@@H]1CN([C@@H](C)CO)C(=O)c2cc(NC(=O)Nc3ccc(C(F)(F)F)cc3)ccc2O[C@@H]1CN(C)S(=O)(=O)c1cccs1
1[16.7 µM]	CO[C@@H]1CN(C)C(=O)c2cc(NC(=O)CC(F)(F)F)ccc2OC[C@H](C)N(C(=O)C2CC2)C[C@H]1C
-10[16.7 µM]	CC(C)NC(=O)Nc1ccc2c(c1)C(=O)N([C@@H](C)CO)C[C@H](C)[C@H](CN(C)C(=O)NC1CCCCC1)OCCCC[C@H](C)O2
-15	COC(=O)[C@]12C[C@H](CC(=O)N3CCN(C(=O)C4CC4)CC3)C(=O)N(Cc3ccc4c(c3)OCO4)C1=C[C@H](C(C)(C)C)O[C@@H]2C

3 entries from above, arranged by heavy-atom count, smallest number first.
Env fusion inh	SMILES
-21[16.7 µM]	C[C@@H]1CN([C@@H](C)CO)C(=O)c2cccc(N(C)C)c2O[C@H]1CN(C)C(=O)NC1CCCCC1
-18[16.7 µM]	COCC(=O)N1C[C@@H](C)[C@@H](OC)CN(C)C(=O)c2ccc(NC(=O)c3cnccn3)cc2OC[C@@H]1C
-4[16.7 µM]	COc1ccc(CN(C)C[C@@H]2Oc3ccc(NS(=O)(=O)c4c(C)noc4C)cc3CC(=O)N([C@H](C)CO)C[C@@H]2C)cc1

Returning to the listing, starting 2 compounds before the break.
Env fusion inh	SMILES
-10[16.7 µM]	CC(C)NC(=O)Nc1ccc2c(c1)C(=O)N([C@@H](C)CO)C[C@H](C)[C@H](CN(C)C(=O)NC1CCCCC1)OCCCC[C@H](C)O2
-15	COC(=O)[C@]12C[C@H](CC(=O)N3CCN(C(=O)C4CC4)CC3)C(=O)N(Cc3ccc4c(c3)OCO4)C1=C[C@H](C(C)(C)C)O[C@@H]2C
22	COc1cccc(CNS(=O)(=O)c2ccccc2Br)c1
-24	O=C(C(=O)N1CCC(CNS(=O)(=O)c2ccccc2OC(F)(F)F)CC1)c1cc2ccccc2o1
6[16.7 µM]	O=C(C[C@H]1C=C[C@@H](NS(=O)(=O)c2ccc(F)cc2)[C@H](CO)O1)NC1CCCCC1
9[16.7 µM]	O=C(C[C@H]1CC[C@H]2[C@@H](COC[C@@H](O)CN2CCc2ccccc2)O1)NCCCN1CCOCC1
-7[16.7 µM]	C[C@H](NC(=O)C[C@@H]1C[C@H]2c3cc(NC(=O)NC4CCCCC4)ccc3O[C@H]2[C@H](CO)O1)c1ccccc1
-9[16.7 µM]	COC(=O)c1c2oc(c1C(=O)OC)C(=O)N[C@@H](Cc1ccccc1)Cn1cc(nn1)[C@@H](Cc1ccccc1)NC(=O)N[C@@H](CO)CC2
1[16.7 µM]	CO[C@@H]1CN(C)C(=O)c2ccc(NS(=O)(=O)c3cccc(Cl)c3)cc2OC[C@H](C)NC[C@@H]1C
16[16.7 µM]	COC(=O)C[C@H]1CC[C@@H]2[C@H](COC[C@H](O)CN2C(=O)Nc2ccccc2OC)O1
3[16.7 µM]	CCNC(=O)C[C@H]1CC[C@@H]2[C@@H](COc3ccc(NC(C)=O)cc3C(=O)N2C)O1
18[16.7 µM]	C[C@@H]1CCCCO[C@@H](CN(C)S(C)(=O)=O)[C@@H](C)CN([C@H](C)CO)C(=O)c2cc(NC(=O)c3ccncc3)ccc2O1
8[16.7 µM]	O=C(C[C@@H]1CC[C@H]2[C@@H](COC[C@H](O)CN2CC2CCOCC2)O1)NCc1ccc(Cl)cc1
-11[16.7 µM]	C[C@@H]1CN([C@H](C)CO)C(=O)c2c(c3ccccc3n2C)-c2ccccc2CO[C@@H]1CN(C)S(=O)(=O)c1ccccc1F
-10[16.7 µM]	CCCC(=O)Nc1ccc2c(c1)C(=O)N(C)C[C@@H](OC)[C@@H](C)CN(C(=O)CC1CC1)[C@@H](C)CO2
-5	NC(=O)c1ncn([C@@H]2O[C@H](C(=O)N[C@H](Cc3c[nH]c4ccccc34)C(=O)NCC(=O)N3CCCCC3)[C@@H](O)[C@H]2O)n1
23[16.7 µM]	COC(=O)C[C@@H]1C=C[C@@H](NC(=O)Nc2ccc(C(F)(F)F)cc2)[C@@H](CO)O1
12	FC(F)(F)c1ccccc1CN1CCCc2nc(-c3ccccc3)ccc21
-6[16.7 µM]	O=C(CCN1CCCCC1)NCC[C@@H]1CC[C@H](NC(=O)Cc2cccnc2)[C@H](CO)O1
-31[16.7 µM]	COc1ccc(NC(=O)N(C)C[C@@H]2OCc3ccccc3-c3c(n(C)c4ccccc34)C(=O)N([C@@H](C)CO)C[C@H]2C)c(OC)c1
27	CCc1cc2c(nc1CC)CCCN2S(=O)(=O)c1ccc(OC)cc1
9[16.7 µM]	C[C@H](CO)N1C[C@H](C)[C@@H](CN(C)C(=O)c2ccc3c(c2)OCO3)Oc2ncc(C3=CCCC3)cc2C1=O

Random excerpt: 5 entries already listed.
Env fusion inh	SMILES
16[16.7 µM]	COC(=O)C[C@H]1CC[C@@H]2[C@H](COC[C@H](O)CN2C(=O)Nc2ccccc2OC)O1
-36[16.7 µM]	CN1CCN(C(=O)C[C@H]2CC[C@@H]3[C@@H](COc4ccc(NC(=O)C5CCOCC5)cc4C(=O)N3C)O2)CC1
-1[16.7 µM]	CC(C)NC(=O)Nc1ccc2c(c1)C(=O)N([C@H](C)CO)C[C@H](C)[C@H](CN(C)S(C)(=O)=O)O2
10[16.7 µM]	COc1ccc(-c2ccc3n(c2=O)C[C@H]2[C@H](CO)[C@@H](C(=O)N4CCOCC4)N[C@@H]32)cc1
-5[16.7 µM]	CN1CCN(C(=O)C[C@H]2C[C@@H]3c4cc(NC(=O)C5CCC5)ccc4O[C@@H]3[C@H](CO)O2)CC1

Bioassay records deposited in PubChem BioAssay by Broad Institute.

Some of the compounds tested; rates above refer to the full screens.
